Assay outcomes from PubChem.
LASV entry inh: blocks Lassa virus binding to or entry into cells; Lassa virus pseudotype entry inhibition, cell reporter; control for the full effect not named in the record; Potency, µM (titrated, usually from 37.9 µM), inactives show top-dose activity change, negative = inhibition, hits mostly inhibitors; actives 1.2% (n = 300,000); AID 540256; active means well fitted inhibition curve with a large enough effect; inconclusive means small, poorly fitted or top-dose-only effect, or effect the other way; inactive means flat fitted curve, though single readings scatter; tested in HEK293 cells; further: on the % scale 0 is the no-effect control and ±100 the full control effect; nearly all actives have a fitted effect of over 50% in size; luciferase read-out
RE007 growth inh: less growth of the S. pombe RE007 Vpr strain | Potency, µM (doses to about 92.2 µM), for inactives: top-dose activity change, negative = less growth | S. pombe RE007 Vpr strain, BacTiter-Glo ATP luminescence, 24 h; control for the full effect not named in the record | AID 651644 | actives 0.21% (n = 360,000); active = well fitted falling curve with a large enough effect; inconclusive = small, poorly fitted or top-dose-only effect; inactive = no such curve, though single readings can be large or run the other way;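 further: on the % scale 0 is the no-effect control and ±100 the full control effect; nearly all actives have a fitted effect of over 50% in size; the assay follows cell death caused by Vpr and the record does not say whether a fall means rescue or toxicity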
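Fission yeast RE007 carrying one integrated HIV-1 vpr copy, seeded at OD 0.01 in PMG+AL medium with 23 nL pinned compound. Grown 24 h at 30 degrees; viability read by BacTiter-Glo luminescence after 5 min.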
2A StopGo: FMDV 2A StopGo reporter, luciferase signal; human cells with a luciferase reporter of 2A StopGo recoding; control for the full effect not named in the record; Potency, µM (doses to about 57.9 µM), inactives show at the top dose signal change, negative = less light; actives 1.2% (n = 410,000); active = well fitted falling curve with a large enough effect; inconclusive = small, poorly fitted or top-dose-only effect; inactive = no such curve, though single readings can be large or run the other way; tested in HEK293T cells; further: on the % scale 0 is the no-effect control and ±100 the full control effect; nearly all actives have a fitted effect of over 45% in size; luciferase light after 4 h
Cruzain Triton: inhibitors of Trypanosoma cruzi cruzain with detergent | purified cruzain, Z-FR-AMC fluorescence, 0.01% Triton | Potency, µM, for the others: max response, negative = inhibition, hits mostly inhibitors | actives 0.43% (n = 200,000) | AID 1478; active means well fitted curve in the direction sought with a large enough effect; inconclusive means small, poorly fitted or top-dose-only effect, or another doubt; inactive means no such curve, though single readings can be large; an effect the other way counts as inactive or inconclusive;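 further: plate controls were neutral wells for no effect and buffer without enzyme for full effect; nearly all actives have a fitted effect of over 40% in size; top concentration of the series not given in the record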
Target sequence (P25779 123-467 limits assumed): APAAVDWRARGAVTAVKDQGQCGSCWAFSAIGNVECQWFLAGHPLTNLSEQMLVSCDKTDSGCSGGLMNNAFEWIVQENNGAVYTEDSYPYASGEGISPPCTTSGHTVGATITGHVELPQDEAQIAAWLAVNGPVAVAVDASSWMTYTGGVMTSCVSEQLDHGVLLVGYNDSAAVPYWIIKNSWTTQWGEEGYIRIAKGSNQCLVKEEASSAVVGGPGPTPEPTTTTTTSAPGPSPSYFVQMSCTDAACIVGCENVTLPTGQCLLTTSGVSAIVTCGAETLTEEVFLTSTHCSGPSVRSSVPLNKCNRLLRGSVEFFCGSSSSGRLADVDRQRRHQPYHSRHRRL
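Z-FR-AMC hydrolysis (2 uM substrate) by cruzain (1.5 nM) monitored kinetically at ex 360/em 450 nm after 15 min room-temperature compound exposure; 0.01% Triton X-100, pH 5.5, 5 mM DTT.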
Cruzain noTriton: blocks cruzain activity in detergent-free assay. purified cruzain, Z-FR-AMC fluorescence, no detergent. actives 2.3% (n = 200,000). Potency, µM, for inactives: max response, negative = inhibition, actives largely listed as inhibitors; active means well fitted curve in the direction sought with a large enough effect; inconclusive means small, poorly fitted or top-dose-only effect, or another doubt; inactive means no such curve, though single readings can be large; an effect the other way counts as inactive or inconclusive;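 further: plate controls were enzyme without inhibitor for no effect and buffer without enzyme for full effect; nearly all actives have a fitted effect of over 40% in size; top concentration of the series not given in the record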
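Detergent-free condition (0.00005% Triton X-100) in acetate buffer pH 5.5 with DTT. 1.5 nM enzyme and compound were pre-mixed 15 min, then 2 uM Z-FR-AMC substrate added; reaction progress from fluorescence change between first and third reads (60 s).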
NS1 inh: inhibitors of influenza NS1 protein function; Potency, µM (titrated, usually from 46.1 µM), for inactives: at the highest dose activity, positive = more growth; S. cerevisiae slowed by influenza A NS1, growth recovery by OD600; actives 0.4% (n = 270,000); further: actives are rising curves; nearly all actives have a fitted effect of over 50% in size
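In this qHTS, NS1 from influenza A is expressed in budding yeast, where it slows growth. Cells are switched from glucose to 2% galactose medium (pH 6.0, -URA), treated with compound, and growth recovery is read at OD600.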
Marburg entry inh: Marburg virus entry inhibition; Marburg virus pseudotyped entry inhibition, cell reporter; control for the full effect not named in the record; about a third of the inactives were read at about 46 µM; Potency, µM (titrated, usually from 37.8 µM), for inactives: top-dose activity change, negative = inhibition, hits mostly inhibitors; actives 1.8% (n = 300,000); active = well fitted inhibition curve with a large enough effect; inconclusive = small, poorly fitted or top-dose-only effect, or effect the other way; inactive = flat fitted curve, though single readings scatter; tested in HEK293 cells; about a fifth of its hits are not listed in these tables; further: on the % scale 0 is the no-effect control and ±100 the full control effect; luciferase read-out
SARS PLpro yeast: inhibitors of SARS-CoV papain-like protease in yeast | S. cerevisiae expressing SARS-CoV PLpro, growth rescue; control for the full effect not named in the record | Potency, µM (series often up to 32.9 µM), for the others: top-dose activity, positive = growth rescue | actives 0.19% (n = 330,000); further: 0% is about no effect; nearly all actives have a fitted effect of over 55% in size; growth read by luminescence after 48 h
* = called active by the depositor; ? = inconclusive; nt = no result given; [ ] = dose if it differs, or a comment. Unless noted, the call rests on the fitted dose curve; in most records, active means well fitted rising curve with a large enough effect; inconclusive means small, poorly fitted or top-dose-only effect; inactive means no such curve, though single readings can be large or run the other way. Potency means the concentration at half of the fitted maximal effect.

SMILES	LASV entry inh	RE007 growth inh	2A StopGo	Cruzain Triton	Cruzain noTriton	NS1 inh	Marburg entry inh	SARS PLpro yeast
O=C(CSc1ccccc1C(=O)N1CCCCC1)NCC1CCCCC1	nt	4%	25%	nt	nt	3%	nt	-2%
CCN(CC)C(=S)SCC(=O)Nc1nc(=O)c2ccccc2s1	25%	6%	27%	1.2%	-28%	13%	12%	8%
CC(C)c1ccc(OCC(=O)N2CCN(CCc3ccccn3)CC2)cc1	9%[46.1 µM]	nt	-10%	0.5%	2%	nt	13%[46.1 µM]	nt
Cc1c(Cl)cccc1-n1ncc(C(=O)N2CCOCC2)c1C1CCN(C(=O)OC(C)(C)C)CC1	-24%[46.1 µM]	nt	-13%	0.4%	-13%	nt	nt	nt
COc1ccc(C(=O)Nc2cccc(C(=O)OCc3cc(=O)n4c5c(sc4n3)CCCC5)c2)cc1	19%[46.1 µM]	nt	6%	1.8%	1%	nt	nt	nt
COC(=O)Cn1ncn2cccc2c1=O	7%	14%	-12%	1.1%	3%	2%	12%	-4%
COc1ccccc1-c1noc(CCC(=O)Nc2ccccc2Cl)n1	11%	-8%	0%	-6.3%	-1%	-12%	0%	-20%
COC(=O)Nc1ccc(S(=O)(=O)Nc2cc(C(F)(F)F)c[nH]c2=O)cc1	?	1%	1%	nt	nt	-4%	-1%[46.1 µM]	-3%
COc1ccc(CN2C(=O)c3ccccc3C(/C=N\OCc3ccc(F)cc3)C2=O)cc1 (configuration not stated)	-3%	10%	?	0.1%	?	?	-25%	-4%
O=S(=O)(Cc1ccccc1)N1CCCCC1	1%	-11%	9%	-1.7%	-7%	13%	12%	10%
Nc1ccccc1CNc1nc(NCCO)nc2c1ncn2CCN1CCOCC1	nt	-4%	-7%	nt	nt	1%	nt	0%
O=C(Nc1ccc(Cl)cn1)c1ccc(-c2ccc(Cl)c(Cl)c2)o1	8%	-1%	0%	nt	nt	nt	?	nt
CCOC(=O)N1CCN(C(=O)c2ccc3ccccc3c2)CC1	?	5%	12%	nt	nt	12%	32%	2%
COc1ccccc1NC(=O)CSc1nnc(Cn2cnc3ccccc32)o1	13%	6%	-2%	nt	nt	3%	14%[46.1 µM]	0%
O=C(CSc1ccc(-c2cccnc2)nn1)N1CCCCCC1	-22%[46.1 µM]	11%	6%	nt	nt	nt	12%[46.1 µM]	-3%
CC(C)CC(=O)Nc1cccc(-c2cn3cccnc3n2)c1	15%[46.1 µM]	nt	31%[activator]	-16%	-7%	nt	nt	nt
O=C(CC1SCCNC1=O)Nc1cc(Cl)cc(Cl)c1 (configuration not stated)	-18%	-15%	-15%	-1.4%	-7%	-8%	-9%	-2%
O=C(Nc1nc2cc3c(cc2s1)OCO3)C1CC1	-4%	2%	1%	nt	nt	-7%	?	-5%
COc1ccc(OC2C(=O)N(Cc3ccc(F)cc3)C2c2ccc(OC)c(OC)c2)cc1 (configuration not stated)	-26%	5%	nt	-1.6%	22%	-2%	2%	2%
CSC1=NC(C(Cl)(Cl)Cl)N=C(c2ccc(C)cc2)N1 (configuration not stated)	-29%	16%	-22%	nt	nt	nt	-20%[46.1 µM]	-3%
CCn1c(C)nc2cc(C(=O)N/N=C(\C)c3ccc(N4CCOCC4)cc3)ccc21	8%	-6%	-18%	nt	nt	nt	-1%	0%
N/C(=N\OC(=O)c1ccco1)c1ccc(Cl)cc1	?	-16%	32%[activator]	nt	nt	-2%	?	-6%
O=C(Cn1cc([N+](=O)[O-])cn1)NCc1ccccc1	nt	-7%	1%	nt	nt	-6%	nt	4%
CCOC(=O)N1CCC(N(CCN(C)C)C(=S)Nc2cc(Cl)ccc2C)CC1	?	-9%	-11%	nt	nt	nt	?	0%
COc1ccc(CC(=O)Nc2ccc(-c3nnc(-c4ccccc4)o3)cc2)cc1OC	25%[14.3 µM]	-10%	43%[activator]	-2.3%	10%	?	20%	-7%
CC(Oc1ccc2c(-c3ccccc3)cc(=O)oc2c1)C(=O)NCc1ccccn1 (configuration not stated)	nt	-5%	-21%	nt	nt	-38%	nt	-6%
Cc1ccc(C)c(N(C)S(=O)(=O)c2ccc3[nH]cc(C(=O)NCCN4CCOCC4)c(=O)c3c2)c1	?	-5%	?	-3.7%	0%	-10%	?	9%
COc1cccc(C(=O)NCCCNC(=O)c2cccc(OC)c2)c1	?	-3%	-8%	nt	nt	5%	11%[46.1 µM]	-7%
CCc1cccc(C)c1NC(=O)COC(=O)Cn1c(C)csc1=O	0%	16%	-8%	nt	nt	nt	5%[46.1 µM]	-5%
C/C(N)=C(/C#N)C(=O)COC(=O)c1cc(-c2ccc(C)cc2)nc2ccccc12	25%	8%	0%	-11%	12%	2%	?	2%
O=S(=O)(Nc1ccc2c(c1)oc1ccccc12)N1CCCC1	20%	-20%	73%[activator]	-6.5%	-6%	-65%	-7%	-10%
O=C(CP(=O)(c1ccccc1)c1ccccc1)Nc1cccc(CP(=O)(c2ccccc2)c2ccccc2)c1	-18%	17%	?	nt	nt	-7%	?	1%
COCCCN=Cc1c(C)[nH]n(-c2ccc(Br)c(C)c2)c1=O	11µM*	-13%	-51%	-4.9%	-5%	-4%	?	-4%
COc1ccc(Cl)cc1NC(=O)c1nn(C)c2c1CS(=O)(=O)c1ccccc1-2	-6%[46.1 µM]	nt	-6%	-0.6%	8%	nt	nt	nt
O=C1C2C3CCC(C3)C2C(=O)N1Cc1ccco1 (configuration not stated)	-10%	10%	-4%	-4.8%	9%	15%	1%	12%
N#Cc1c(-c2ccccc2)cc(-c2ccccc2)nc1SCC(O)CS(=O)(=O)Cc1ccccc1 (configuration not stated)	-26%[46.1 µM]	nt	-6%	-1.7%	20µM*	nt	nt	nt
COc1ccc(CC2(CCc3ccncc3)C(=O)NC(=O)NC2=O)cc1OC	nt	-12%	-11%	nt	nt	0%	nt	0%
Cn1c(=O)c2c(nc(NNC(=O)C(F)(F)F)n2C)n(C)c1=O	-24%	-3%	9%	nt	nt	nt	-12%[46.1 µM]	0%
Cc1csc(NC(=O)CCC(=O)N(CC(=O)NC2CCCCC2)c2ccccc2)n1	-15%[46.1 µM]	9%	-10%	nt	nt	-15%	-2%[46.1 µM]	0%
C#CCOCCOCCOCCNc1nc(N2CCN(C(=O)Cn3cc(CCCCN)nn3)CC2)nc(N2CCN(C(=O)Cn3cc(CC(C)O)nn3)CC2)n1 (configuration not stated)	1%	-4%	-4%	0.6%	6%	11%	21%	1%
O=C(OCc1cccc(F)c1)c1cc2ccccc2cc1O	8%[46.1 µM]	-6%	11%	nt	nt	-3%	-6%[46.1 µM]	-2%
COc1cc(-n2cnnn2)ccc1S(=O)(=O)N1CCOCC1	3%	16%[3.69 µM]	-1%	8.1%	-3%	-1%	12%	8%
CCCCCC(=O)Nc1cccc(C2=NOC3(C2)C[C@@H](C(N)=O)N(C(=O)CC(c2ccccc2)c2ccccc2)C3)c1 (some centres not stated)	nt	1%	?	nt	nt	-11%	nt	0%
CCCOc1ccc(-c2nn(-c3ccccc3)cc2/C=C2\SC(N)=NC2=O)cc1	3%	30%	9%	0.2%	?	6%	20%	13%
COc1ccc(-c2nc(CS(=O)CC(=O)NC3CCCCC3C)c(C)o2)cc1 (configuration not stated)	23%[46.1 µM]	8%	16%	nt	nt	21%	12%[46.1 µM]	0%
Cc1ccc(Nc2nc(N)c3ccccc3n2)cc1C	nt	-20%	-62%	nt	nt	2%	nt	-9%
O=C(CCC(=O)N1CCSc2ccccc21)Nc1cccc(F)c1	nt	5%	0%	nt	nt	-16%	nt	-6%
COc1ccccc1/C=N/NC(=O)c1nnn(-c2nonc2N)c1-c1ccccc1	-12%	-23%	-19%	nt	nt	nt	?	nt
COc1ccc(N2CCN(C(=O)CCNS(=O)(=O)c3ccc(C)cc3)CC2)cc1	-2%	-8%	3%	nt	nt	10%	-11%	nt
O=C(N/N=C/c1c(O)ccc2ccccc12)c1cccc(C(F)(F)F)c1	?	-2%	?	-6.9%	13%	-51%	2.6µM*	4µM*
Continued.
SMILES	LASV entry inh	RE007 growth inh	2A StopGo	Cruzain Triton	Cruzain noTriton	NS1 inh	Marburg entry inh	SARS PLpro yeast
CSCC[C@H](NC(=O)c1ccc(Cl)c([N+](=O)[O-])c1)c1nc2ccccc2[nH]1	-29%	-15%	?	14µM*	-9%	11%	10µM*	5%
CC(=O)N1CCC(=NNc2ccnc3cc(Cl)ccc23)CC1	-6%[46.1 µM]	0%	5%	nt	nt	nt	-3%[46.1 µM]	-6%
CCOC(=O)C1CCN(C(=O)CSc2nc3ncccc3[nH]2)CC1	nt	-24%	-6%	nt	nt	-3%	nt	1%
CCOC(=O)c1ccccc1NC(=O)CN1C(=O)NC(C)(CCc2ccccc2)C1=O (configuration not stated)	11%[46.1 µM]	6%	-14%	nt	nt	nt	?	-10%
O=C(NNC(=O)c1cc(Br)ccc1Cl)c1csc(N2CCOCC2)n1	0%	2%	-21%	nt	nt	4%	-2%	-2%
COc1cc(/C=N/NC(=O)c2nnn(-c3nonc3N)c2-c2cccs2)ccc1O	nt	13%	-19%	nt	nt	-13%	nt	29%
Cc1cn(S(=O)(=O)c2ccc(Br)c3ccccc23)cn1	nt	nt	nt	-3.4%	-6%	13%	nt	2%
CCOC(=O)/C(C#N)=C1/C(=O)N(Cc2ccccc2)c2ccccc21	12%[46.1 µM]	-9%	15%	nt	nt	nt	?	-20%
Cc1c2cnn(-c3ccccc3)c(=O)c2c(C)n1CC(=O)NCc1ccc(Cl)cc1	-8%[46.1 µM]	nt	?	-1.8%	-4%	nt	7%[46.1 µM]	nt
CCOC(=O)c1[nH]cnc1C(=O)NC1CCCCC1	-23%	1%	-13%	1.9%	4%	-7%	-1%	-2%
COc1ccccc1Cn1c(SCC#N)nc2cc(C(=O)N3CCC4(CC3)OCCO4)ccc2c1=O	-28%[46.1 µM]	4%	4%	nt	nt	nt	-38%[46.1 µM]	4%
Cc1onc(-c2c(F)cccc2Cl)c1C(=O)Nc1cccc(S(=O)(=O)NC2=NCCC2)c1	19%	-15%	31%[activator]	nt	nt	nt	-27%	-8%
COCCn1c(SCC(=O)NC2CCCCC2C)nc2ccccc2c1=O (configuration not stated)	14%	1%	9%	nt	nt	-4%	7%[46.1 µM]	-1%
